# PrP 5UTR inh: inhibition of PrP 5' UTR reporter expression; cell-based PrP 5' UTR mRNA reporter, plate reader; AID 488862, 2010; inhibition, % (test concentration not listed); actives 0.35% (n = 340,000);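 active means every replicate at 50% or more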;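 further: 0 = median of the neutral control wells; tested in H4 reporter cells; numbers are from one replicate; inactives centre near -14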
# ugtP null kill: growth inhibition of ugtP-null S. aureus, primary screen, RN4220 ugtP deletion, OD600. 16 h; some inactives read as strong as hits. growth inhibition, % (no concentration beside the values). actives 0.54% (n = 330,000);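 active means z-score under -3 and OD600 up to 0.15 on both plates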;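 further: plate controls were untreated wells for no effect and antibiotic for full effect; wells of about 80 µL received 100 nL stock; the first replicate is given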
# RN4220 kill: growth inhibition of S. aureus RN4220, primary screen, OD600; 16 h; inhibition, % (test concentration not listed); actives 0.33% (n = 330,000); AID 1259311, 2017;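 active means z-score of -3 or lower and OD600 up to 0.18 on both plates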;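 further: plate controls were untreated cells for no effect and reference antibiotic for full effect; stock transfer was 100 nL into about 80 µL; one replicate is shown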
# BJeLR viability: MLPCN primary cell-based screen for lethality selective to Ras in HRASV12 cells; BJeLR (HRASV12) viability, CellTiter-Glo ATP luminescence, 48 h; reference of the scale not given here; inhibition, % (no concentration beside the values); actives 0.17% (n = 300,000); AID 1554, 2009;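 active means replicate mean above 50%; inconclusive means above 50% but judged a plate artefact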;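 further: 50 nL library stock added to about 25 µL; numbers are from one replicate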
# Mtb hypoxia inh: PubChem AID 1159583; M. tuberculosis hypoxia-regulated fluorescent reporter, fluorescence; fluorescence inhibition, % (no concentration beside the values); actives 0.1% (n = 300,000);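 active means 35 to 45% if threefold the growth effect, above 45% if 1.5-fold the growth effect; inactive means the rest, general growth blockers included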;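 further: wells of about 50 µL received 100 nL stock; 0% = vehicle wells and 100% = reference inhibitor wells; whole bacteria with a GFP reporter of the hypoxia response; strong numbers were not always called active; many hits fall short of the cut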
# Autofluor counter: flagged as autofluorescent in microsphere protease counterscreen | actives 3.1% (n = 360,000) | AID 624483 | fluorescence intensity (no concentration beside the values) | compound autofluorescence counterscreen, microsphere flow cytometry; hits give high values;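 active means at least 3 SD above the mean of all compounds, about 16000 in these data; inconclusive means too few beads counted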;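 further: 100 nL of 1 mM stock went into each well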
# Mtb hypoxia inh growth: further read-out of Mtb hypoxia inh, marked with its call; growth inhibition, %; measured here: M. tuberculosis growth (absorbance);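 0% = vehicle and 100% = reference antibiotic; read after six days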
# Active calls of the source: *; ? = inconclusive; · = no result given; & = joins results of further samples.
SMILES,PrP 5UTR inh,ugtP null kill,RN4220 kill,BJeLR viability,Mtb hypoxia inh,Mtb hypoxia inh growth,Autofluor counter
CC1=NN(c2ccccc2)C(=O)/C1=C/c1ccc(Cl)cc1,42,11,5.3,5,5,4,3354
C=C(C)C(Cc1c(OC)ccc(C(=O)/C=C/c2ccc(O)cc2)c1O)OO (stereo not drawn),-8,14,19,·,·,·,5464
Cc1cccn2c(=O)nc(SCC(=O)c3ccc(Cl)cc3)nc12,1,9,7.8,7,-2,3,5472
CCN(CC)CCOC(=O)C(c1ccccc1)C1CCCCC1 (stereo not drawn),-21,6,4.5,·,5,0,5526
CC(C)(C)c1ccc(/C=C(\C#N)C(=O)Nc2ccccn2)cc1,-18,12,3.8,3,5,7,3996
COC(=O)c1ccccc1NC(=O)CNC(=O)c1ccco1,0,1,3.5,3,·,·,2447
CC1CCc2nn(CC(=O)NCc3ccco3)cc2C1 (stereo not drawn),-4,2,0.8,1,·,·,4450
COc1ccccc1-c1cc(C(=O)NN=Cc2cn(C)nc2C)c2ccccc2n1,·,0,1.0,·,-3,6,·
CCOc1ccccc1NC(=O)COC(=O)c1cc[n+]([O-])cc1,-40,5,3.4,1,0,0,4231
CCc1ccc(C(=O)Nc2cccc(-c3nn[nH]n3)c2)s1,-7,0,-1.2,-15,8,6,5758
COc1ccc(/C=C2\SC(=S)N(CCC(=O)NC3CCCC3)C2=O)cc1OC,-32,7,2.8,0,4,5,3832
C=CCn1c(CNC(=O)c2ccco2)nnc1SCC(=O)c1ccc(F)cc1,-22,-6,2.5,4,3,0,3682
COc1ccc(C)cc1NC(=O)N1CCCc2ccccc21,-11,9,2.7,0,7,3,1960
CC(=O)Nc1ccc(S(=O)(=O)N(C)CC(=O)OCC(=O)c2ccc[nH]2)cc1,-13,1,0.4,·,25,11,3093
CC(CCc1ccccc1)NC(=O)c1ccc2nc(N3CCOCC3)sc2c1 (stereo not drawn),-27,9,2.7,-1,16,-9,4113
COc1ccc(/C=C/c2nnc(NC(=O)CSc3ccc(C)cc3)s2)cc1,-10,-4,1.2,-3,2,0,5811
CN(C)C(=O)c1noc2cc([N+](=O)[O-])ccc12,-43,7,6.8,4,8,5,16570*
COc1ccc(/C=N/S(=O)(=O)c2ccccc2)cc1OC,-24,·,·,6,·,·,4536
Cc1cccc(NC(=O)c2ccc(S(=O)(=O)N(C)C)cc2)c1,-13,-1,6.7,0,1,-7,4412
CC1(C)CC(=O)N(c2cc(Cl)cc(Cl)c2)C(=O)C1,·,15,0.3,4,5,9,3575
COc1cc(/C=C/C(=O)c2ccc([N+](=O)[O-])o2)ccc1O,-17,·,·,92*,·,·,2940
CCOC(=O)C1CCCN(C(=O)Cn2ncc3c([nH]c4ccccc43)c2=O)C1 (stereo not drawn),2,2,1.3,-1,8,9,6141
Cc1ccc([C@@H]2[C@@H]3C(=O)N(C)C(=O)[C@@H]3[C@]3(C)C(=O)N(CCO)CC(=O)N23)o1,-20,-4,-11,-1,4,10,4155
O=C(CSc1nn(-c2ccccc2)c(=S)s1)Nc1ncccn1,-23,9,5.1,·,5,2,4318
O=C(O)CCCC(=O)OCc1c(-c2ccccc2)ncc2ccccc12,-19,0,0.3,·,25,6,3937
O=C(CCN1C(=O)C2C3C=CC(C3)C2C1=O)N1CCCCC1 (stereo not drawn),-8,2,1.7,1,7,13,3974
Cc1onc(-c2ccccc2Cl)c1C(=O)Nc1cccc(-c2cn3cccnc3n2)c1,-3,-4,6.2,·,7,6,8140
Cc1cc(C)cc(N2CC(C(=O)Nc3cc(C)on3)CC2=O)c1 (stereo not drawn),-28,11,1.6,7,3,5,3324
Cc1ccc(OCc2cc(C(=O)NC(C)Cc3cnccn3)no2)cc1C (stereo not drawn),-29,-7,-2.9,-11,-4,1,4991
CC(C)(C)c1ccc(-n2ncc3c2CCCC3NC(=O)CCCn2cncn2)cc1 (stereo not drawn),-17,7,2.1,-2,6,-5,5807
CCN(CC)S(=O)(=O)c1cccc(NC(=O)c2ccc(SC)cc2OC)c1,11,4,6.7,-7,2,7,4043
COc1ccc(N(C(=O)c2ccccc2OC(C)=O)C(C)C2CC2)cc1 (stereo not drawn),-15,-2,5.1,-3,13,10,9866
COc1ccc(-n2ccc(=O)c3c2CCCC3=O)cc1,-18,1,4.6,0,-3,2,2866
CCOc1ccc(C(=O)N[C@H](C(=O)Nc2ccc(OC)c(S(=O)(=O)N3CCOCC3)c2)C(C)C)cc1,-11,5,0.0,-5,12,5,4381
COC(=O)CSc1nc2ccc(NC(C)=O)cc2s1,1,-12,-4.1,1,2,13,4698
COc1ccccc1OCCNC(=O)C(=O)c1c[nH]c2ccccc12,-15,4,8.3,-6,7,2,3417

# Molecules from the list above that contain a tert-butyl group (two):
SMILES,PrP 5UTR inh,ugtP null kill,RN4220 kill,BJeLR viability,Mtb hypoxia inh,Mtb hypoxia inh growth,Autofluor counter
CC(C)(C)c1ccc(/C=C(\C#N)C(=O)Nc2ccccn2)cc1,-18,12,3.8,3,5,7,3996
CC(C)(C)c1ccc(-n2ncc3c2CCCC3NC(=O)CCCn2cncn2)cc1 (stereo not drawn),-17,7,2.1,-2,6,-5,5807

# Going on with the list.
SMILES,PrP 5UTR inh,ugtP null kill,RN4220 kill,BJeLR viability,Mtb hypoxia inh,Mtb hypoxia inh growth,Autofluor counter
CCCc1nc(SCc2ccc(OCC)cc2)n[nH]1,·,14,2.5,6,0,9,3463
COC(=O)c1ccc(NC(=O)CCS(=O)(=O)c2ccc(Br)s2)cc1,-11,6,-2.6,5,5,6,8862
COc1ccc(/C=C/C(=O)O)cc1S(=O)(=O)N1CCCc2ccccc21,-16,12,8.1,-8,14,2,3639
CC(=O)N1CCN(C(=O)c2cc(C)nc3ccccc23)CC1,-14,7,4.4,4,12,8,4396
COc1cc(C=NNc2ccc([N+](=O)[O-])cc2)ccc1OCC(=O)Nc1ccc(C)c(C)c1,·,-28,-25,·,-3,-5,·
CCC(=O)Nc1ccc(N2CCN(C(=O)c3ccccc3C)CC2)cc1,-10,-10,-7.7,1,-7,-3,7509
COc1cc(N2CCCC2)ccc1C=O,-17,4,5.7,8,-1,-7,4580
COc1ccc(OCC(=O)NNC(=O)Cc2coc3cc(OC)ccc23)cc1,-5,-4,-2.5,-7,7,11,2000
COC(=O)c1ccc(CSc2nnc(SCc3ccc(C(=O)OC)o3)s2)o1,-14,-10,-0.5,16,0,7,9631
CC(=O)Nc1nonc1NC(=O)CSc1ncn[nH]1,-18,2,2.6,-3,-1,-6,21267*
CC(NC(=O)Cn1cc([N+](=O)[O-])cn1)c1ccc(C(C)(C)C)cc1 (stereo not drawn),-28,-4,-1.2,5,-3,11,4961
Cc1ccc(S(=O)(=O)N2CCC(C(=O)NCCc3ccccc3)CC2)cc1,·,1,3.6,1,2,3,11461
COc1cccc(NS(=O)(=O)c2cc3c(cc2C)N(C)CCO3)c1,-28,-2,-14,0,9,6,5542
CCOC(=O)C1=C(C(=O)OCC)c2ccc(OC)c(OC)c2C1,7,-9,1.8,·,8,3,3257
COc1ccc(-c2cc(C(=O)NC(Cc3cc4ccccc4[nH]3)C(=O)O)c(C)o2)cc1OC (stereo not drawn),-29,4,2.2,-5,-7,-16,4049
CNC(=O)NC(=O)CSc1ccc(S(=O)(=O)N2CCOCC2)cn1,-17,8,7.6,·,11,7,3663
Cc1cccc(C(C)C)c1NC(=O)COC(=O)Cc1ccsc1,-8,2,5.5,-23,10,2,2626
CC(Oc1ccccc1Cl)C(=O)Nc1ccc(S(=O)(=O)Nc2nccs2)cc1 (stereo not drawn),-19,-15,13,-11,11,2,4709
COc1ccccc1C=NNc1nc(C)c(C(C)=O)s1,·,10,2.5,·,4,7,·
CCOC(=O)c1c(NC(=O)C(C)OC(=O)C2=COCCO2)sc2c1CCCC2 (stereo not drawn),-18,-6,-2.7,·,-3,-3,6586
Cc1sc2nc(CSc3nnnn3-c3ccc(Cl)cc3)[nH]c(=O)c2c1C,-2,-5,8.9,-2,4,11,3174
CC(=NN=C(N)N)c1cccc(Cl)c1,·,6,3.6,·,-3,9,·
O=C(COc1ccccc1C(=O)c1cnn(-c2ccccc2)c1)Nc1ccc2ccccc2c1,-66,-25,-6.5,-5,7,1,2163
Cc1ccc(C2NC(=S)NC3=C2C(=O)CCC3)cc1 (stereo not drawn),-12,5,2.5,-20,8,3,3920

# Pulled by structure from the entries so far, two records:
SMILES,PrP 5UTR inh,ugtP null kill,RN4220 kill,BJeLR viability,Mtb hypoxia inh,Mtb hypoxia inh growth,Autofluor counter
Cc1sc2nc(CSc3nnnn3-c3ccc(Cl)cc3)[nH]c(=O)c2c1C,-2,-5,8.9,-2,4,11,3174
CC(Oc1ccccc1Cl)C(=O)Nc1ccc(S(=O)(=O)Nc2nccs2)cc1 (stereo not drawn),-19,-15,13,-11,11,2,4709

# (listing goes on)
SMILES,PrP 5UTR inh,ugtP null kill,RN4220 kill,BJeLR viability,Mtb hypoxia inh,Mtb hypoxia inh growth,Autofluor counter
COc1ccc(NC(=O)COc2cccc3c2OC(C)(C)C3)cc1OC,1,-6,-0.9,·,12,2,?
CC(C)CCNC(=O)C(c1ccco1)N(CCCO)C(=O)Cn1nnc(-c2ccc(F)cc2)n1 (stereo not drawn),-21,5,9.8,-7,8,2,4491
CCc1ccccc1N1CC(C(=O)Nc2nccs2)CC1=O (stereo not drawn),-22,8,4.6,8,8,10,3758
CCCC(=O)Nc1ccc(NC(=O)c2ccccc2Cl)nc1,-30,9,-2.9,7,·,·,2954
COc1ccc(C2/C(=C(\O)c3ccc4c(c3)OCCO4)C(=O)C(=O)N2CCCN(C)C)c(OC)c1 (stereo not drawn),-4,9,-0.8,6,·,·,2372
O=C(CCCCO)CCCCCCCC[C@H]1N[C@H](CO)[C@H](O)[C@@H]1O[C@@H]1O[C@H](CO)[C@@H](O)[C@H](O)[C@H]1O,-22,·,·,8,·,·,3098
Cc1ccc(NC(=O)CN(C)C(=O)COC(=O)c2nc3nccc(C)n3n2)cc1,-15,0,0.0,·,-5,-4,3183
CC(=Cc1ccccc1)CC1=C(C)C2(CC2)[C@@]2(C)OC(=O)OC2C1=CCO (stereo partly drawn),·,0,8.3,·,6,9,·
COCCNC(=O)c1cc2c(-c3ccccc3F)nn(C)c2s1,-15,0,5.5,-1,2,6,4150
Cc1ccccc1CCNC(=O)Cn1ccc2cc(S(=O)(=O)N3CCCC3)ccc21,-27,4,1.6,-5,5,2,6433
COc1ccccc1C(=O)n1nc(-c2ccc(Cl)cc2)nc1N,-20,-7,-0.4,-3,·,·,2639
CCOC(=O)C(=O)NNc1ccc(Cl)cc1,-20,0,0.0,2,9,5,2155
Cc1cc(OC(C)C(=O)Nc2ccccc2C(=O)N2CCCC2)ccc1Cl (stereo not drawn),-15,-1,-0.9,5,0,11,5620
COc1cccc(NC(=O)[C@H](CC(C)C)NC(=O)N2CCn3c2nc2ccccc23)c1,-1,-2,0.4,3,13,4,5994
Cc1c(N2C(=O)/C(=C\C3CC=CCC3)SC2=S)c(=O)n(-c2ccccc2)n1C (stereo not drawn),-25,1,-1.6,3,2,7,4026
NC1CONC1=O (stereo not drawn),·,-2&-3,5.8&30,·,2&-3,-1&0,·
Cc1csc(NN=Cc2ccc([N+](=O)[O-])cc2)n1,·,-2,5.1,·,15,21,·
COc1ccc(CC(=O)OC(C)CN2CCOCC2)cc1 (stereo not drawn),22,1,2.6,3,2,10,4369
COc1ccc(C2/C(=C(/O)c3ccccc3)C(=O)C(=O)N2c2ccccn2)c(OC)c1 (stereo not drawn),-15,3,4.8,1,0,11,9892
COc1ccccc1N1CC(C(=O)Nc2nnc(SC)s2)CC1=O (stereo not drawn),1,10,4.9,-7,6,3,4404
Cc1cc(C)c(C=NNC(=O)c2nnn(-c3nonc3N)c2COc2ccc(F)cc2)c(C)c1,·,-16,-7.1,·,11,-1,·
O=C(NCc1ccccn1)C1CCN(S(=O)(=O)c2cccs2)CC1,-41,6,2.2,-4,4,2,14696
O=C(CN1C(=O)/C(=C\c2ccccc2Cl)Sc2ccccc21)NCCCN1CCOCC1,-4,7,2.0,-2,5,6,4096
Cc1ccc(C2CC(=O)N3CN(Cc4ccco4)CSC3=C2C#N)cc1 (stereo not drawn),-22,0,2.4,-2,1,-1,20926*

# High-throughput results from PubChem BioAssay.

# Rows are unselected (roughly 4% active in at least one column).
